Screening data: PubChem, several laboratories
CSC inhib: cancer stem cell viability inhibitors, primary screen, luminescence; AID 2717, 2010; cancer stem cell-like cells viability; 1.1% of 300,000 active; inhibition, % at 7.5 µM;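 active means mean at 75% or more and at least half the replicates too; inconclusive means mean and replicates disagree; tested in HMLE shEcad cells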;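 further: 0% = median of negative and 100% = median of positive control wells; the first replicate is given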
Rce1 inhib: yeast Rce1p protease inhibitors, primary screen, biochemical, fluorescence, cell-free homogeneous; CAAX prenyl protease 2 (Saccharomyces cerevisiae (strain ATCC 204508 / S288c)), Q03530; yeast membranes, quenched prenylated peptide cleavage fluorescence; calls only; 0.27% of 290,000 active;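 active means fall in fluorescence gain of 50% or more versus controls, with final raw signal at or below 3038400; inconclusive means same 50% fall but final raw signal above 3038400; inactive means fall in fluorescence gain under 50%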;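 further: plate controls were neutral control wells for no effect and wells lacking membranes for full effect; tested at 10 µM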
Target sequence (Q03530 whole entry, looked up): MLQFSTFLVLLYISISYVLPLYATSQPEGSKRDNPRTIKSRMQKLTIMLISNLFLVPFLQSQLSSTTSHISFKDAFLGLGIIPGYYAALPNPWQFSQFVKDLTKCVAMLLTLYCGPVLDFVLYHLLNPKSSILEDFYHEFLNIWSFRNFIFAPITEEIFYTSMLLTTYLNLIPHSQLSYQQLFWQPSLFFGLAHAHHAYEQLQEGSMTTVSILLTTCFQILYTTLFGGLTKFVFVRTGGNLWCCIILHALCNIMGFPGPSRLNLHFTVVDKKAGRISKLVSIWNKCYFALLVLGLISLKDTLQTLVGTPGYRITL
PABP polyA inh: PABP poly(A) RNA binding inhibitors, primary screen, biochemical, fluorescence polarization, uHTS; inhibition, % at 35 µM; 1% of 290,000 active;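 active means 50% or more with normal probe brightness, or confirmed in later tests; inconclusive means above 50% with abnormal brightness, or retests that disagree; inactive means below 50% or failed in later tests; about a fifth of its hits are not listed in these tables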;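 further: calls also rest on retests at 20 µM and on dose response follow-up; controls were probe without protein and protein plus probe with vehicle; some compounds called inactive have numbers as strong as hits; many hits fall short of the cut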
Target sequence (P11940 whole entry, looked up): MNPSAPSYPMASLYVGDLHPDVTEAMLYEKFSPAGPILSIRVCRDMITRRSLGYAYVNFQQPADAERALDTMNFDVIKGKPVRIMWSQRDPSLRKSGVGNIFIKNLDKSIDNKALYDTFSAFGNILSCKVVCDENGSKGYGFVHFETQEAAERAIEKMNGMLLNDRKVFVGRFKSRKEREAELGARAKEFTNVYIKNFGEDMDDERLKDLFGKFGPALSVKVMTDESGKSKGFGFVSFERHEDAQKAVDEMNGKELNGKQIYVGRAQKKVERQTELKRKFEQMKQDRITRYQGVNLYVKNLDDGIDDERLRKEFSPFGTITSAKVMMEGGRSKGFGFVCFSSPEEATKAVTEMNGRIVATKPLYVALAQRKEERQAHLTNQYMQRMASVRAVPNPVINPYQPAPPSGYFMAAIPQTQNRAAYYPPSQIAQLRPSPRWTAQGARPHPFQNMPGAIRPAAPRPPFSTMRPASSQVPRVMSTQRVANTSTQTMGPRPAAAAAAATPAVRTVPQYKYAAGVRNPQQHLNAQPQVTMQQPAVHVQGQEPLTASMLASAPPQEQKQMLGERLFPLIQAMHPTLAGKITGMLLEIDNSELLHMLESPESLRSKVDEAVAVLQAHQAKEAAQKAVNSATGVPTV
eIF4H inh: human eIF4H binding inhibitors, primary screen, translation initiation inhibitor project, biochemical, uHTS, fluorescence polarization. eIF4H fluorescence polarization binding assay. Eukaryotic translation initiation factor 4H (Homo sapiens), Q15056. inhibition, % at 35 µM. 0.94% of 290,000 active. AID 2012, 2009;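 active means 50% or more with normal probe brightness, or confirmed in later tests; inconclusive means above 50% with abnormal brightness, or retests that disagree; inactive means below 50% or failed in later tests; about a fifth of its hits are not listed in these tables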;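 further: calls also rest on retests at 20 µM and on dose response follow-up; 0% = protein and probe with vehicle and 100% = probe without protein; strong numbers were not always called active; many hits fall short of the cut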
Env fusion inh: inhibitors of HIV-1 Env-driven cell-cell fusion, primary screen, HeLa-JRFL effector, CEM21 target cells, luciferase | inhibition, % at 12.3 µM | 1.1% of 360,000 active;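 active means mean replicate inhibition score of at least 50 and every replicate individually at or above 50; inconclusive means only one of the two criteria met; inactive means mean below 50 and not all replicates reaching 50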;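 further: 0% = plate neutral controls and 100% = maraviroc near 300 nM; one replicate is shown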
MT1-MMP act inh: blockers of MT1-MMP proenzyme processing, primary screen, HT1080 RFP-PRO-GFP cells, GFP/RFP fluorescence | Matrix metalloproteinase-14 (Homo sapiens), P50281 | GFP/RFP ratio fluorescence, overnight; percent of plate control window, DMSO zero | GFP/RFP ratio change, % at 20 µM | 0.061% of 360,000 active;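 active means GFP/RFP ratio change of at least 30% with cell ATP level not reduced by more than half and red fluorescence within 50% of control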; further: strong numbers were not always called active
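Assay system – RFP-PRO-GFP reporter HT1080 cells · Compound dosing – single dose of 20 µM compound, 1% DMSO final · Incubation – overnight compound exposure at 37 °C · Measure – GFP/RFP fluorescence ratio · Benchmarks – DMSO wells and RFP-L50D-GFP cells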
Yeast UUG start: modulators of yeast start codon fidelity, primary screen, whole organism, S. cerevisiae, single point, plate reader | S. cerevisiae UUG-firefly luciferase reporter, luminescence/redox ratio | activity score, % at 18.7 µM | 0.13% of 350,000 active | AID 602363, 2012;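 active means replicate mean at a twofold rise or more, about +100% in these data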;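 further: firefly luciferase made from a UUG start codon reports start codon fidelity; reporter light over untreated wells divided by growth signal over untreated wells; some hits fall short of that in this replicate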
eIF4H inh retest: also measured in eIF4H inh; calls as there; inhibition, %; compound at 20 µM; confirmation average;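 mean of two retest wells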
PABP polyA inh retest: also measured in PABP polyA inh; calls as there; inhibition, %; compound at 20 µM; confirmation repeats;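 mean of two retest wells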
MT1-MMP act inh RFP: further read-out of MT1-MMP act inh, marked with its call; RFP signal change, %; measured here: RFP expression control read;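 0 = vehicle wells; hits needed this value within 50% of zero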
* marks the source's active call; other numbers are inactive results; i = inactive; ? = inconclusive; nt = not tested or not shown; + = active, no number. Compounds as they come; any-hit rate near 2.9%.

SMILES | CSC inhib | Rce1 inhib | PABP polyA inh | eIF4H inh | Env fusion inh | MT1-MMP act inh | MT1-MMP act inh RFP | Yeast UUG start | others
CCOc1ccc(NC(=O)CS(=O)CC(=O)NC2CCCc3ccccc32)cc1 (stereo unspecified) | -7 | nt | -8 | -4 | -44 | 0 | -1 | -4
CSc1ccc(CN(C)C(=O)CSCC(=O)Nc2cc(C)on2)cc1 | -18 | i | 33 | 8 | 12 | 1 | 1 | -14
c1ccc(C2c3c(ccc4ccccc34)Oc3ncn4nc(-c5ccco5)nc4c32)cc1 (stereo unspecified) | -6 | i | 9 | -4 | -4 | -12 | -6 | -13
COc1cc2c(cc1OC)C(C)N(C(=O)CCNC(=O)c1ccccc1)CC2 (stereo unspecified) | 11 | + | 1 | 1 | -11 | -5 | 1 | -26
CCOCCOc1cc(NCc2ccccc2)c2ncn(C(C)C)c2c1 | nt | nt | nt | nt | -5 | -6 | 6 | -13
CCN(CC(=O)Nc1c(F)cccc1F)C(=O)CN1C(=O)NC2(CCCC2)C1=O | -14 | i | nt | nt | -32 | -5 | 3 | -10
COc1ccccc1C(=O)NC(=S)Nc1cc(C(=O)O)ccc1C | 1 | i | -4 | 5 | 13 | -1 | 3 | nt
Cc1cc(=O)oc(C)c1C(=O)NNC(=O)C1(C)CC1Br (stereo unspecified) | 3 | i | 8 | -16 | 7 | 2 | 11 | -2
COc1ccccc1NC(=O)CN1CCN(Cc2ccccc2)CC1 | -8 | i | 0 | 1 | -8 | 2 | 2 | -7
COc1ccc(Cl)cc1NC(=S)NN1CCOCC1 | -6 | i | 49 | 1 | 4 | 2 | -2 | nt
Cc1ccc(CN(C(=O)c2cc3ccccc3oc2=O)C2CCS(=O)(=O)C2)cc1 (stereo unspecified) | -10 | i | 3 | -8 | -77 | 2 | 0 | -7
CC(=O)Nc1ccc(S(=O)(=O)Nc2nc3ccccc3nc2Sc2nncn2C)cc1 | 2 | i | ? | ? | -19 | -70 | -2 | -9
Cc1ccc(NC(=O)CN2CCc3ccccc3C2)cc1S(=O)(=O)N1CCOCC1 | nt | i | -3 | -5 | 2 | 1 | -1 | -12
CN(CCc1ccccc1)C(=O)c1cc(COc2cccc(C(F)(F)F)c2)on1 | nt | i | 10 | 0 | 9 | -1 | -3 | -21
Cc1cc(S(=O)(=O)N2CCCC2C(=O)N2CCOCC2)c(C)cc1Cl (stereo unspecified) | -3 | i | 4 | 8 | -37 | -1 | 0 | 7
O=C(CC1SC(N2CCCC2)=NC1=O)Nc1ccc(C(=O)NCCc2ccc(F)cc2)cc1 (stereo unspecified) | -14 | i | nt | nt | -3 | 1 | 1 | -6
COc1cc(C)ccc1OCc1cc(C(=O)N(C)CCCN2CCOCC2)no1 | -1 | i | 4 | -14 | -46 | -5 | 1 | -16
Cc1cc(C)c(C)c(OCC(O)CN2CCN(c3ccccn3)CC2)c1 (stereo unspecified) | -18 | i | 8 | -4 | -1 | 2 | 5 | -7
COc1cc(NC(=O)CN2CCCCCC2)cc(OC)c1 | 3 | i | 3 | 23 | 0 | 0 | -1 | nt
CC1CN(S(=O)(=O)c2cccc(C(=O)Nc3ccccc3N3CCCC3)c2)CC(C)O1 (stereo unspecified) | 1 | i | nt | nt | 26 | 4 | -10 | 7
C=CCSc1nnc2c(n1)[nH]c1c(C)cccc12 | 16 | i | 3 | -13 | nt | -1 | -19 | -11
O=C(CCCn1c(SCC(=O)NCCc2ccccc2)nc2ccccc2c1=O)NCC1CCCO1 (stereo unspecified) | -7 | i | -13 | -10 | 2 | -1 | -1 | -15
CC(=O)Nc1ccc(S(=O)(=O)NCCc2csc(C)n2)cc1 | -18 | i | -2 | -5 | 1 | 1 | 2 | -6
O=C(CNS(=O)(=O)c1ccccc1)NCC(=O)OCc1ccc(Br)cc1 | -5 | i | 3 | 1 | -22 | -1 | -1 | nt
O=C(/C=C(\O)c1ccccc1)C(=O)NNC(=O)c1ccccc1[N+](=O)[O-] | -2 | i | 0 | -3 | -3 | 2 | 3 | 5

Pulled one by one from the list above (three):
SMILES | CSC inhib | Rce1 inhib | PABP polyA inh | eIF4H inh | Env fusion inh | MT1-MMP act inh | MT1-MMP act inh RFP | Yeast UUG start | others
COc1ccccc1C(=O)NC(=S)Nc1cc(C(=O)O)ccc1C | 1 | i | -4 | 5 | 13 | -1 | 3 | nt
CC(=O)Nc1ccc(S(=O)(=O)Nc2nc3ccccc3nc2Sc2nncn2C)cc1 | 2 | i | ? | ? | -19 | -70 | -2 | -9
COc1cc(C)ccc1OCc1cc(C(=O)N(C)CCCN2CCOCC2)no1 | -1 | i | 4 | -14 | -46 | -5 | 1 | -16

The listing picks up, starting 2 compounds before the break.
SMILES | CSC inhib | Rce1 inhib | PABP polyA inh | eIF4H inh | Env fusion inh | MT1-MMP act inh | MT1-MMP act inh RFP | Yeast UUG start | others
O=C(CNS(=O)(=O)c1ccccc1)NCC(=O)OCc1ccc(Br)cc1 | -5 | i | 3 | 1 | -22 | -1 | -1 | nt
O=C(/C=C(\O)c1ccccc1)C(=O)NNC(=O)c1ccccc1[N+](=O)[O-] | -2 | i | 0 | -3 | -3 | 2 | 3 | 5
Cc1ccccc1Nc1nnc(C)c(=O)[nH]1 | 0 | i | 0 | 12 | -6 | -2 | 1 | -2
Cc1cc(C)nc(N(C#N)Cc2cccc3ccccc23)n1 | 13 | i | -11 | -8 | 35 | -6 | -3 | -16
COc1ccccc1-n1c(SCC(=O)N2CCc3ccccc32)nc2c(c1=O)SCC2 | -18 | i | -1 | 2 | -16 | -3 | -2 | -13
CC(=O)C1=C(C)NC(C)=C(C(C)=O)C1c1cn(-c2ccccc2)nc1-c1cccs1 | -7 | i | -4 | 9 | nt | -4 | -6 | 1
CC(C)=NOc1nc(N(C)C)nc(N2CCOCC2)n1 | -11 | i | 0 | -8 | -4 | -2 | -5 | -6
O=C(c1cc2ccccc2oc1=O)N(Cc1ccccc1)C1CCS(=O)(=O)C1 (stereo unspecified) | -24 | i | -4 | -1 | -47 | 4 | 2 | -7
Cc1ccc(Nc2nc(Nc3ccc(C)cc3)nc(SC3=NCCS3)n2)cc1 | 33 | i | -2 | -7 | nt | -9 | -8 | nt
O=C(CSCc1ccco1)N1CCc2ccccc21 | 1 | nt | -1 | -8 | nt | -5 | 1 | -10
CCN1C(=NCCc2ccccn2)N[C@@H](c2cccc(F)c2)C(C(=O)OC)=C1C | -9 | i | nt | nt | -10 | 1 | 5 | 4
O=c1[nH]c(CN2CCN(c3ccccc3O)CC2)nc2ccccc12 | -9 | i | 2 | 4 | nt | -1 | 2 | -6
COc1ccc(OC)c(-c2csc(NC(=O)Cc3ccccc3)n2)c1 | 39 | i | 2 | -4 | -9 | -6 | -8 | -5
O=C(CCc1nnc2ccc(NCc3ccco3)nn12)Nc1ccccn1 | -11 | i | 43 | 88* | -22 | -1 | 0 | -21 | eIF4H inh retest=90*;PABP polyA inh retest=38
COc1ccccc1C(=O)NC(=O)COC(=O)C1(C)CC1(Cl)Cl (stereo unspecified) | nt | i | nt | nt | nt | 1 | 2 | -23
O=C(/C=C/c1cccc([N+](=O)[O-])c1)Nc1ccc(NC(=O)c2cccs2)cc1 | -7 | i | 50* | 24 | nt | 0 | 5 | -4 | eIF4H inh retest=24;PABP polyA inh retest=51*
CN(c1ccccc1)S(=O)(=O)c1ccc(C(=O)OCC(=O)NCc2cccs2)cc1 | 28 | i | 2 | 0 | -15 | -2 | 6 | nt
O=C(C1CCN(S(=O)(=O)c2c(Cl)cccc2Cl)CC1)N1CCCC1 | 4 | nt | nt | nt | 1 | 1 | -1 | -13
COc1ccc(OCC(=O)Nc2cccc3cccnc23)cc1 | -2 | i | -7 | 2 | -35 | 1 | 0 | -16
Cc1ccnn1C(C)C(=O)O (stereo unspecified) | 11 | i | -3 | -4 | -8 | -4 | 1 | nt
CCOC(=O)NCc1ccccc1 | 1 | i | -8 | 1 | nt | 2 | 2 | -17
Cc1nn(CCC(=O)NNC(=S)Nc2ccccc2)c(C)c1Br | -2 | i | -7 | 7 | -9 | -3 | 1 | -35
CC(C)CNC(=O)[C@H](Cc1ccccc1)NC(=O)c1cccs1 | -4 | i | -4 | 1 | 10 | -2 | -2 | nt
Cc1ccc(OCC(=O)Nc2ccc(S(=O)(=O)N3CCOCC3)cc2)c(C)c1 | nt | i | 13 | -2 | 7 | 0 | -3 | -18
COc1ccc(N(CC(=O)Nc2cccnc2)S(=O)(=O)c2ccccc2)cc1OC | 2 | i | -8 | 2 | 12 | 7 | 3 | -2
O=C(Nc1ccncc1)c1ccc([N+](=O)[O-])cc1Cl | -17 | i | -5 | -1 | 4 | -4 | 0 | -9
COc1ccc(NC(=O)CCc2nc(-c3ccccc3F)no2)cc1 | -2 | i | 10 | -3 | nt | 4 | 1 | -20

(cont.)
SMILES | CSC inhib | Rce1 inhib | PABP polyA inh | eIF4H inh | Env fusion inh | MT1-MMP act inh | MT1-MMP act inh RFP | Yeast UUG start | others
CCN(CC)C(=O)CSc1ncnc2c1nnn2-c1ccc(F)cc1 | -30 | i | 0 | -5 | nt | 4 | -6 | -6
O=C(CNCc1ccco1)Nc1cc(S(=O)(=O)N2CCOCC2)ccc1N1CCCC1 | -23 | i | 0 | -4 | -8 | 1 | 8 | -2
O=C(CSc1ncnc2[nH]ncc12)Nc1cccc(Oc2ccccc2)c1 | 20 | i | 15 | -11 | 15 | 5 | 3 | -12
CC1c2cc3c(cc2CCN1C(=O)c1ccc(Cl)cc1)OCCCO3 (stereo unspecified) | 6 | i | -2 | 1 | -14 | 0 | -9 | -10
O=C(NCc1cccs1)c1cc2c(s1)-c1ccccc1OC2 | 23 | i | -22 | -5 | -69 | 4 | -16 | -13
Cc1ccccc1OCC(=O)OCC(=O)Nc1ccc(Cl)cn1 | nt | nt | nt | nt | -27 | -2 | 0 | -1
N/C(=N\N=C\c1ccc(O)c(O)c1)c1nonc1N | 2 | i | 0 | -4 | -10 | 3 | -3 | nt
Brc1cccc(-c2nc3ccc(Br)cn3c2Cc2ccsc2)c1 | nt | nt | nt | nt | -22 | 1 | 5 | 3
CS(=O)(=O)c1ccc(C(=O)Nc2ccccc2Cl)cc1 | -24 | i | 0 | -1 | -6 | 2 | 0 | -6
CC(C(=O)N(C)Cc1cccc(F)c1)N1CCN(S(=O)(=O)c2ccc3c(c2)OCCCO3)CC1 (stereo unspecified) | nt | nt | nt | nt | -1 | 1 | -12 | -9

Grouped by structure, the compounds so far with a nitro group on carbon.
SMILES | CSC inhib | Rce1 inhib | PABP polyA inh | eIF4H inh | Env fusion inh | MT1-MMP act inh | MT1-MMP act inh RFP | Yeast UUG start | others
O=C(/C=C(\O)c1ccccc1)C(=O)NNC(=O)c1ccccc1[N+](=O)[O-] | -2 | i | 0 | -3 | -3 | 2 | 3 | 5
O=C(/C=C/c1cccc([N+](=O)[O-])c1)Nc1ccc(NC(=O)c2cccs2)cc1 | -7 | i | 50* | 24 | nt | 0 | 5 | -4 | eIF4H inh retest=24;PABP polyA inh retest=51*
O=C(Nc1ccncc1)c1ccc([N+](=O)[O-])cc1Cl | -17 | i | -5 | -1 | 4 | -4 | 0 | -9
